Screening data (PubChem BioAssay)
eIF4H FP inh: human eIF4H binding inhibitors, primary screen, translation initiation inhibitor project, biochemical, uHTS, fluorescence polarization | eIF4H fluorescence polarization binding assay | inhibition, % at 35 µM | 0.94% of 290,000 active | AID 2012, 2009;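 active means 50% or more with normal probe brightness, or confirmed in later tests; inconclusive means above 50% with abnormal brightness, or retests that disagree; inactive means below 50% or failed in later tests; about a fifth of its hits are not listed in these tables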;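 further: calls also rest on retests at 20 µM and on dose response follow-up; 0% = protein and probe with vehicle and 100% = probe without protein; strong numbers were not always called active; many hits fall short of the cut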
CSC inhib: cancer stem cell viability inhibitors, primary screen, luminescence. cancer stem cell-like cells viability. inhibition, % at 7.5 µM. 1.1% of 300,000 active. AID 2717, 2010;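 active means mean at 75% or more and at least half the replicates too; inconclusive means mean and replicates disagree; tested in HMLE shEcad cells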;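 further: 0% = median of negative and 100% = median of positive control wells; the first replicate is given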
Env fusion inh: inhibitors of HIV-1 Env-driven cell-cell fusion, primary screen, HeLa-JRFL effector, CEM21 target cells, luciferase; inhibition, % at 12.3 µM; 1.1% of 360,000 active; AID 651610, 2012;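 active means mean replicate inhibition score of at least 50 and every replicate individually at or above 50; inconclusive means only one of the two criteria met; inactive means mean below 50 and not all replicates reaching 50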;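 further: 0% = plate neutral controls and 100% = maraviroc near 300 nM; one replicate is shown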
MT1-MMP act inh: blockers of MT1-MMP proenzyme processing, primary screen, HT1080 RFP-PRO-GFP cells, GFP/RFP fluorescence. Matrix metalloproteinase-14 (Homo sapiens), P50281. GFP/RFP ratio fluorescence, overnight; percent of plate control window, DMSO zero. GFP/RFP ratio change, % at 20 µM. 0.061% of 360,000 active. AID 651647, 2012;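 active means GFP/RFP ratio change of at least 30% with cell ATP level not reduced by more than half and red fluorescence within 50% of control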; further: strong numbers were not always called active
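Assay system: RFP-PRO-GFP reporter HT1080 cells; read-out basis: GFP/RFP fluorescence ratio; benchmarks: DMSO wells and RFP-L50D-GFP cells; doses: 20 µM single dose, 1% DMSO; schedule: overnight cell settling, then overnight compound exposure, 37 °C, 5% CO2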
Rce1 inh: yeast Rce1p protease inhibitors, primary screen, biochemical, fluorescence, cell-free homogeneous; yeast membranes, quenched prenylated peptide cleavage fluorescence; calls only; CAAX prenyl protease 2 (Saccharomyces cerevisiae (strain ATCC 204508 / S288c)), Q03530; 0.27% of 290,000 active;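 active means fall in fluorescence gain of 50% or more versus controls, with final raw signal at or below 3038400; inconclusive means same 50% fall but final raw signal above 3038400; inactive means fall in fluorescence gain under 50%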;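 further: plate controls were neutral control wells for no effect and wells lacking membranes for full effect; tested at 10 µM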
PABP polyA inh: PABP poly(A) RNA binding inhibitors, primary screen, biochemical, fluorescence polarization, uHTS; inhibition, % at 35 µM; 1% of 290,000 active; AID 2014, 2009;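 active means 50% or more with normal probe brightness, or confirmed in later tests; inconclusive means above 50% with abnormal brightness, or retests that disagree; inactive means below 50% or failed in later tests; about a fifth of its hits are not listed in these tables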;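 further: calls also rest on retests at 20 µM and on dose response follow-up; controls were probe without protein and protein plus probe with vehicle; some compounds called inactive have numbers as strong as hits; many hits fall short of the cut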
Target sequence (P11940 whole entry, looked up): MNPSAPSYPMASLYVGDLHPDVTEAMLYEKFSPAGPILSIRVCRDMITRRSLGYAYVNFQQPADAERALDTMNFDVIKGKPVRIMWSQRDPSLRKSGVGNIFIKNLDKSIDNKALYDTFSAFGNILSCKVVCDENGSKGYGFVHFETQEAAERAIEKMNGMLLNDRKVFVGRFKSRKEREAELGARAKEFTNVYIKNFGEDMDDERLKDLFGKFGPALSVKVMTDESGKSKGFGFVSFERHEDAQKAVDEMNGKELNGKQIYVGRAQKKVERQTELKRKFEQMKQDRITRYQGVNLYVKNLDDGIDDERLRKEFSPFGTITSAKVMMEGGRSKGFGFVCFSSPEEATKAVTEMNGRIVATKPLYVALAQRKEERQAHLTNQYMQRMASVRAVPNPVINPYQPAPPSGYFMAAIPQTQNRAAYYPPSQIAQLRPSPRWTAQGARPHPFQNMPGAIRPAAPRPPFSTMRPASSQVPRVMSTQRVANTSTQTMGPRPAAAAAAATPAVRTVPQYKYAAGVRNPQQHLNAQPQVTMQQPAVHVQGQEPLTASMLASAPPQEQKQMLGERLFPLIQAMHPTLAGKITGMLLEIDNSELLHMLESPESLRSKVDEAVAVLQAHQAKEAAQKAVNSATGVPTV
Yeast UUG start: modulators of yeast start codon fidelity, primary screen, whole organism, S. cerevisiae, single point, plate reader | 0.13% of 350,000 active | activity score, % at 18.7 µM | AID 602363, 2012 | S. cerevisiae UUG-firefly luciferase reporter, luminescence/redox ratio;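 active means replicate mean at a twofold rise or more, about +100% in these data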;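 further: firefly luciferase made from a UUG start codon reports start codon fidelity; reporter light over untreated wells divided by growth signal over untreated wells; some hits fall short of that in this replicate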
MT1-MMP act inh RFP: also measured in MT1-MMP act inh; calls as there; RFP signal change, %; measured here: RFP expression control read;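 0 = vehicle wells; hits needed this value within 50% of zero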
* hit, by the source's call; i = inactive; ? = inconclusive; · = no result given. The list is partial; the hit share may differ from the screen's.

SMILES	eIF4H FP inh	CSC inhib	Env fusion inh	MT1-MMP act inh	MT1-MMP act inh RFP	Rce1 inh	PABP polyA inh	Yeast UUG start
COc1cccc2cc(C(N)=O)/c(=N/NC(=O)COc3ccc(Cl)cc3)oc12	-0.4	5.7	·	·	·	i	-4.6	·
COc1ccc(C(C(=O)NC2CCCCC2)N(Cc2cccs2)C(=O)Cc2c[nH]c3ccccc23)cc1 (stereo unspecified)	-17.4	10.8	?	-7.5	-9.5	i	-0.3	-10.0
COc1cccc(CN2CCC(C(=O)N3CCN(Cc4ccc5c(c4)OCO5)CC3)CC2)c1	7.2	-4.4	32.3	3.5	-1.2	i	3.6	2.9
CC(=O)OCc1c(COC(C)=O)[n+](=O)c2ccccc2n1[O-]	4.0	-5.0	-4.1	0.1	4.5	·	2.0	-24.4
O=C1c2ccccc2[C@@H]2C[C@H](NC34CC5CC(CC(C5)C3)C4)[C@@H](O)CCN12	·	·	23.5	0.5	2.4	·	·	-2.4
CC(=O)Nc1ccc(C(=O)OCC(=O)c2ccc(C)c([N+](=O)[O-])c2)cc1	-5.2	-0.7	·	0.5	-1.6	i	-6.5	0.8
CCOc1cc(C(=S)N2CCOCC2)ccc1O	-4.1	-8.9	·	-0.8	-0.8	i	-12.3	-5.6
CN(CCC#N)C(=O)Cn1nc(Cc2ccncc2)c2ccccc2c1=O	-15.4	2.8	-114.7	-9.4	3.1	i	3.6	-17.0
COc1ccc(/C=C(\NC(=O)c2ccccc2)C(=O)NCc2cccnc2)cc1	-8.9	-1.4	0.4	0.9	-0.1	i	2.9	6.9
O=C(NC1CCCCC1)C(c1ccc2ncccc2c1)N(Cc1cccs1)C(=O)c1cccs1 (stereo unspecified)	1.5	-4.6	·	-4.0	-2.4	i	12.5	-17.3
CC(OC(=O)c1ccc2noc(-c3ccccc3)c2c1)C(N)=O (stereo unspecified)	16.4	6.3	-10.9	-5.6	-0.2	i	32.3	-2.3
O=C(CCCCCN1C(=O)c2cccc3cccc(c23)C1=O)NCCCO	-2.7	0.2	11.9	-2.6	-1.6	i	3.6	-13.1
COC(=O)Nc1sc2c(c1C(=O)NCc1ccco1)CCC2	2.4	-7.0	·	-4.6	1.0	i	28.4	·
CCOC(=O)Cc1csc(NC(=O)c2cc(OC)cc(OC)c2)n1	2.3	-5.3	4.7	-6.0	-9.0	i	-8.1	-0.9
O=C(CNS(=O)(=O)c1ccccc1)OCC(=O)c1c[nH]c2ccccc12	·	·	-0.2	-1.1	6.5	·	·	-12.8
O=S(=O)(c1ccccc1)N1CCN(CCOc2ccc(F)cc2)CC1	·	·	-12.7	0.7	-11.3	·	·	-17.9
CCOC(=O)N1CCN(C(=O)C2CCN(S(=O)(=O)c3ccc(F)cc3)CC2)CC1	-6.9	-3.0	5.6	3.6	2.6	i	8.0	·
O=C1CC(O)(C(F)F)Oc2ccc3ccccc3c21 (stereo unspecified)	-7.3	-12.2	·	-4.7	-0.9	i	-5.0	·
COc1ccc(-c2csc(NC(C)c3nc4cc(Cl)c(Cl)cc4n3CCCO)n2)cc1 (stereo unspecified)	·	-5.6	?	1.1	-7.5	i	·	8.6
COC(=O)CN(C#N)c1nc(NCc2ccccc2)nc(OC)n1	-8.5	-10.1	-4.3	6.2	0.5	i	-5.7	-2.4
O=C(CSc1nncn1-c1ccccc1)Nc1ccc(N2CCOCC2)cc1	-6.8	-11.8	·	2.6	0.3	i	-5.4	17.1
Cc1ccc(COCCN2CCN(S(=O)(=O)c3ccc(C)cc3)CCC2=O)cc1	9.6	-9.8	0.5	1.3	-11.6	i	1.1	-5.0
CN(C)CCCNC(=O)C1(O)c2cc(Br)ccc2NC(=O)N1c1c(F)cccc1F (stereo unspecified)	3.8	1.6	-21.4	-0.7	3.0	i	-2.1	-4.6
CSc1ncc(CN2CCc3c([nH]c4ccccc34)C2C(C)(C)C)cn1 (stereo unspecified)	11.6	-14.2	6.9	-2.7	-1.4	i	-4.0	-18.9
COc1ccc(N(C(C)C(=O)NCCSCc2cccc(Cl)c2)S(C)(=O)=O)cc1 (stereo unspecified)	2.0	6.4	32.9	3.5	-2.2	i	-6.0	-11.4
CCc1ccc(N2CCN(S(=O)(=O)CC34CCC(CC3=O)C4(C)C)CC2)cc1 (stereo unspecified)	-6.9	-24.8	-10.1	-5.5	-24.0	i	-0.2	-3.0
Cn1c(=O)c2c(SCc3ccccc3)nc(C3CC3)nc2n(C)c1=O	-2.8	-6.0	-25.2	2.1	0.8	i	4.1	-14.8
O=C(COC(=O)c1nc(Cl)ccc1Cl)NC1CCCCCC1	·	-4.5	-39.0	-0.2	1.1	i	·	-11.4
Cc1ccc(N(CC(=O)N/N=C/c2cccs2)S(C)(=O)=O)cc1	-1.7	19.5	-1.0	-2.0	1.9	i	-9.2	5.2
CC(=O)Nc1cc(-c2ccoc2)cn2c(-c3ccccc3)cnc12	·	·	14.7	-5.4	10.5	·	·	1.5

6 entries already listed, arranged by length of the SMILES, falling.
SMILES	eIF4H FP inh	CSC inhib	Env fusion inh	MT1-MMP act inh	MT1-MMP act inh RFP	Rce1 inh	PABP polyA inh	Yeast UUG start
CCc1ccc(N2CCN(S(=O)(=O)CC34CCC(CC3=O)C4(C)C)CC2)cc1 (stereo unspecified)	-6.9	-24.8	-10.1	-5.5	-24.0	i	-0.2	-3.0
Cc1ccc(COCCN2CCN(S(=O)(=O)c3ccc(C)cc3)CCC2=O)cc1	9.6	-9.8	0.5	1.3	-11.6	i	1.1	-5.0
CSc1ncc(CN2CCc3c([nH]c4ccccc34)C2C(C)(C)C)cn1 (stereo unspecified)	11.6	-14.2	6.9	-2.7	-1.4	i	-4.0	-18.9
Cn1c(=O)c2c(SCc3ccccc3)nc(C3CC3)nc2n(C)c1=O	-2.8	-6.0	-25.2	2.1	0.8	i	4.1	-14.8
CC(=O)Nc1cc(-c2ccoc2)cn2c(-c3ccccc3)cnc12	·	·	14.7	-5.4	10.5	·	·	1.5
O=C(COC(=O)c1nc(Cl)ccc1Cl)NC1CCCCCC1	·	-4.5	-39.0	-0.2	1.1	i	·	-11.4

Further structures follow.
SMILES	eIF4H FP inh	CSC inhib	Env fusion inh	MT1-MMP act inh	MT1-MMP act inh RFP	Rce1 inh	PABP polyA inh	Yeast UUG start
CCN(C(=O)c1cn(C)c(=O)c2cc(OC)c(OC)cc12)c1cc(C)ccc1C	-9.4	-11.7	-2.1	-2.3	-4.4	i	4.5	-3.1
CCc1cc(C(=O)NNC(=S)NC(C)c2ccccc2)cs1 (stereo unspecified)	11.0	6.7	·	-0.1	-10.2	i	9.4	-29.8
N#C/C(=N\Nc1cc(Cl)cc(Cl)c1)c1nnc2n1CCCCC2	-10.4	35.7	9.2	-4.7	-10.6	i	0.9	-14.5
O=C(c1cc(-c2ccc(Cl)c(Cl)c2)on1)N1CCOCC1	3.2	-19.8	-52.3	1.9	1.4	i	11.0	1.0
O=c1ccc(-c2ccccc2)nn1Cc1ccccc1	·	0.4	1.9	1.3	1.6	i	·	-2.2
CCCCNC(=O)N(O)C1N(/N=C/c2ccco2)C(=S)SC1(C)C (stereo unspecified)	·	·	-5.9	-0.2	2.6	·	·	-25.6
O=C(NCc1ccc(F)cc1)c1cccc2c1C(=O)c1ccc(N3CCOCC3)cc1S2(=O)=O	·	-2.1	8.0	-22.4	1.9	·	·	-2.6
CCCCNC(=O)C1(NC(=O)Nc2ccc(C)cc2)CCCCC1	3.5	-7.8	14.0	3.4	-0.6	i	11.6	·
COCCCNC(=O)CC1C[C@H](C(=O)N(C(C)C)C(C)C)[C@@]2(C)c3[nH]c4ccccc4c3CCN2C1=O (stereo partly specified)	·	-8.7	-5.3	-1.2	-0.5	·	·	1.3
O=C(CSc1nc2ccccc2s1)N/N=C/c1ccco1	4.9	-13.2	-40.7	2.5	5.4	i	-14.5	·
COc1ccc(C(=O)OCC(=O)c2ccc(Br)s2)c(OC)c1	·	-2.8	1.9	3.5	-3.2	i	·	·
CC1(NC(=O)c2cccc(S(=O)(=O)N3CCN(c4ccc(F)cc4)CC3)c2)CCS(=O)(=O)C1 (stereo unspecified)	·	-9.2	-5.1	3.7	-4.9	i	·	-3.9
COc1ccc(/C=C/C(=O)NC(=S)NN2CCCCC2c2cccnc2)cc1 (stereo unspecified)	-0.8	2.7	·	2.2	0.1	i	-1.3	1.0
N#Cc1ccc(CSc2nc(N)cc(N)n2)cc1	-9.9	-16.2	-23.3	0.3	2.2	i	-4.6	-11.3
Cc1cc(N2CCN(c3cccc(C(F)(F)F)c3)CC2)n2ncnc2n1	-7.3	-0.6	·	-2.7	-20.6	i	-4.1	-24.7
CC(C)C(NC(=O)c1c(F)cccc1F)C(=O)N1CCN(c2ncccn2)CC1 (stereo unspecified)	·	1.5	-2.4	1.9	2.9	·	·	-13.0
O=C(NNc1c(Cl)cncc1Cl)c1cccs1	-10.1	-1.4	19.3	-0.2	1.8	·	4.8	-10.6
C/C(=N\NC(=O)C(c1ccncc1)N1CCOCC1)c1ccc(Br)cc1 (stereo unspecified)	-3.6	-5.3	-6.8	-0.9	1.2	i	-4.4	·
CC1CCN(c2ccc(C(=O)O)cc2)CC1	2.8	-9.8	-47.3	-5.1	-6.1	i	-1.3	-21.1
Cc1cc(C(=O)NNCc2ccccc2)no1	·	-5.1	i	1.8	4.8	·	·	-1.6
COc1ccc(NC(=O)c2cc(-c3ccccc3O)n[nH]2)cc1Cl	-11.5	-3.0	6.0	0.6	2.7	i	-8.0	-18.9
CC1(c2ccccc2)NC(=O)N(CC(=O)NC(=O)NCc2ccco2)C1=O (stereo unspecified)	6.4	-5.1	·	6.0	6.1	i	0.7	-11.8
Cc1c2n(c3ccccc13)CCN(C)C2	·	7.5	-43.1	-1.7	3.2	i	·	-2.6
CCOC(=O)c1c(NC(=O)c2cc(C)oc2C)sc(C(=O)Nc2ccc(Cl)cc2)c1C	-1.5	0.8	-84.0	-6.7	-0.4	i	-9.3	-9.2
COc1ccccc1-c1nnc(Sc2nc([N+](=O)[O-])nn2C)o1	5.3	13.5	126.3*	-5.1	-11.9	i	0.2	·
CCCCNC(=O)c1ccc2c(c1)C(=O)N(Cc1ccncc1)C2=O	-15.6	·	-22.6	-0.2	3.0	i	-5.0	-7.6
COc1cccc(/C=N/N2C(=O)CSC2=S)c1O	21.6	·	17.1	27.4	25.0	i	11.3	·
COc1ccc(C2N(C(=O)CN3CCOCC3)CCN2S(=O)(=O)c2ccccc2)cc1 (stereo unspecified)	3.6	·	-29.3	-1.6	-0.5	·	-9.7	-30.0
Cc1nc(NC(=O)CSc2nnc(-c3ccncc3)n2C)sc1C	-0.8	·	5.3	-2.5	-2.6	i	-8.0	-7.9
Cc1cc(C(O)c2ncc(-c3ccc(Oc4ccccc4)cc3)[nH]2)ccc1F (stereo unspecified)	·	·	8.8	5.8	-14.6	·	·	-18.2
CCCC(=O)C1=C(O)C(c2cccc(Oc3ccccc3)c2)CCC1=O (stereo unspecified)	8.3	28.0	-16.6	0.8	-1.6	i	13.4	-14.2
COc1ccccc1CCNC(=O)c1ccc(NC(=O)CC2SC(N3CCCCC3)=NC2=O)cc1 (stereo unspecified)	·	1.9	·	0.1	2.4	·	·	116.9*
